AID923: qHTS Assay for Allosteric/Competitive Inhibitors of Caspase-1: Spectroscopic Profiling in AFC Spectral Region. compound fluorescence, AFC spectral region (405/520 nm); almost no hit is shown here. Potency, µM (doses to about 57.5 µM), without a hit: top-dose fluorescence increase, most hits filed as activators. hit rate 1.1% among 75,000. AID 923, 2007; active means well fitted activation curve with a large enough effect; inconclusive means small, poorly fitted or top-dose-only effect;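 further: potency means the concentration at half of the fitted maximal effect; 0% is about no effect; scaled to a free AFC standard on each plate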
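Baseline compound fluorescence (AFC region, 405 nm ex/520 nm em) taken from the intercept of kinetic reads with 50 nM caspase-1 and 5 uM Ac-WEHD-AFC; normalized to an on-plate AFC standard curve; compounds titrated up to 57 uM.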
TSHR agonist: qHTS Assay for Agonists of the Thyroid Stimulating Hormone Receptor. HEK293-CNG-TSHR cells (CNG channel as cAMP sensor), membrane potential dye, cAMP. Potency, µM (top dose mostly 57.1 µM), without a hit: top-dose activation, usual class: activators. hit rate 0.48% among 73,000. AID 926, 2007; active = well fitted activation curve of enough size with the parental cells flat; inconclusive = any curve in the parental cells; inactive = parental cells flat and receptor cells flat or falling; further: potency means the concentration at half of the fitted maximal effect; % of control where 0% means no effect; weak receptor curves with flat parental cells got no call and are not listed
Target sequence (P16473 whole entry, looked up): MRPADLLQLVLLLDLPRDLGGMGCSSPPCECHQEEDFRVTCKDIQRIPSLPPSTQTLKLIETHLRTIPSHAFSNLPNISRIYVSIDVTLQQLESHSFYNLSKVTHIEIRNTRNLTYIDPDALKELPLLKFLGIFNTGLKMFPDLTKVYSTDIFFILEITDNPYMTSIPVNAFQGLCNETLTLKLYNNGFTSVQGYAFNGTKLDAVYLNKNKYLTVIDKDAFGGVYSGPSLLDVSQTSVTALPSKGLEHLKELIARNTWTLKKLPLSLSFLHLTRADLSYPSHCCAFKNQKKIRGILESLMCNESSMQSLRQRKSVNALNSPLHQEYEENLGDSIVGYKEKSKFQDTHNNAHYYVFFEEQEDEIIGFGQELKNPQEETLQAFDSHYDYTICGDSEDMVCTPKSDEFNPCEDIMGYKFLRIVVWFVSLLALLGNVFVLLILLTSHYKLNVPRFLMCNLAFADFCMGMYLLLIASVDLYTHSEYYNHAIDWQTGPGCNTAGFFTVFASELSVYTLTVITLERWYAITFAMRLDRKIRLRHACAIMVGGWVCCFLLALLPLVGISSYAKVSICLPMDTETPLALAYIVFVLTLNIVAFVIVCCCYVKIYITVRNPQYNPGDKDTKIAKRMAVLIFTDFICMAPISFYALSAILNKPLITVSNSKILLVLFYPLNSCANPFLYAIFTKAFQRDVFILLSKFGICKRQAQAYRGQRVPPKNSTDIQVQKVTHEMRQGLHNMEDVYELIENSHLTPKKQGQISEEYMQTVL
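HEK 293 cells stably expressing TSHR and a modified CNG channel, with CNG-only parental cells as counterscreen, were preloaded 60 min at room temperature with membrane potential dye containing 100 uM RO 20-1724. Compound exposure was 30 min, and depolarization was read as fluorescence at 590 nm.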
A647 fluor: qHTS Assay for Spectroscopic Profiling in A647 Spectral Region; Compound fluorescence, A647 channel (570/671 nm), Tris buffer; max dye-equivalent concentration, M; 59,000 tested, under 10 active; active means above 1 µM dye equivalent; inconclusive means 0.1 to 1 µM; inactive means 0.1 µM or less;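 further: values scaled relative to a standard on each plate; highest value over a series up to 38 µM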
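Tris 100 mM pH 8.0; cpd + A647 stds pin-transferred; 15 min RT; CCD imager, ex 570/em 671. Output = A647-equivalent conc. per cpd conc.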
Resorufin fluor: qHTS Assay for Spectroscopic Profiling in Resorufin Spectral Region; Compound fluorescence, resorufin region 547/598 nm, buffer; hits give high values; max dye-equivalent concentration, M; hit rate 0.04% among 59,000; active = above 10 nM dye equivalent; inconclusive = 1 to 10 nM; inactive = 1 nM or less; a few of its hits are not listed in these tables; further: highest value over a series up to 38 µM
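Intrinsic fluorescence profiled in the resorufin window (ex 547 nm, em 598 nm) after 15 min at room temperature in pH 8.0 Tris buffer (100 mM); responses normalized against a six-point resorufin standard series as dye-equivalent concentration.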
A488 autofl: qHTS Assay for Spectroscopic Profiling in A488 Spectral Region. AID 591, 2007. hit rate 0.1% among 59,000. compound autofluorescence, A488 spectral region, dye equivalency; hits give high values. max dye equivalency, M; active = above 10 nM dye equivalent; inconclusive = 1 to 10 nM; inactive = 1 nM or less; about half of its hits are not listed in these tables;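 further: highest value over a series up to 38 µM; compound alone in buffer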
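Intrinsic compound fluorescence is measured in 100 mM Tris buffer at pH 8.0 following 15 min incubation at room temperature. Intensities at 480 nm excitation/540 nm emission are calibrated to an on-plate A488 concentration series, giving dye-equivalent concentrations.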
* marks the source's active call; other numbers are inactive results; i = inactive; u = inconclusive; x = no result given; [ ] = dose if it differs, or a comment. This is a subset; count on the stated rates, not on these rows.

Results follow in this order: Resorufin fluor	TSHR agonist	A488 autofl	AID923	A647 fluor
CCOC(=O)C1CCCN(C(=O)c2c(-c3ccccc3Cl)noc2C)C1 (configuration not stated)
→ i	-1.3%	i	2.6%	2.1e-08
CCCc1nc(N2CCCC2)c(C#N)c2c1CCCC2
→ i	x	i	x	7.51e-08
CCOC(=O)C(C)(C)[C@H](O)C(C)C
→ i	6.8%[11.4 µM]	i	3.4%[11.5 µM]	4.33e-08
CCOC(=O)c1ccc(CNC(=O)c2n[nH]c(=O)c3ccccc23)o1
→ i	19.1%	i	-1.1%	1e-09
Cc1ccc(S(=O)(=O)Cc2ccc(C(=O)N3CCCC3)o2)cc1
→ x	u	x	-0.9%	x
CC(C)OC(=O)Nc1ccc(Oc2c(F)c(F)c(F)c(F)c2F)cc1
→ i	-2.7%	i	-0.9%	2.87e-08
Cc1noc(C)c1CSc1nnc2cc(C)c3ccccc3n12
→ i	8.1%	i	0.3%	2.2e-09
COc1cccc(C(=O)NC2=NCCS2)c1
→ i	-5.0%	i	-0.8%	5.8e-09
Cc1ccc2c(c1)cc(CN(Cc1ccc3c(c1)OCO3)C(=O)c1cnccn1)c1nnnn12
→ i	19.8%	i	0.0%	2.12e-08
O=C(Cn1nc(Cc2cccnc2)c2ccccc2c1=O)NCC1CCCO1 (configuration not stated)
→ x	1.0%	x	0.7%	x
CCOC(=O)CCCCC(=O)c1[nH]c(=O)[nH]c1Cn1ccnc1
→ i	-2.1%	i	1.8%	4.5e-09
CCn1c(SCC(=O)O)nnc1C1CCCCC1
→ i	5.7%	i	1.6%	9.9e-09
O=c1oc2ccccc2c(O)c1CN1CCCCC1
→ i	u	i	-1.2%	2.45e-08
Cn1c(C(=O)NCC2CCCO2)cc2c(=O)n(C)c3ccccc3c21 (configuration not stated)
→ x	-2.9%	x	-2.2%	x
CC1CCN(S(=O)(=O)c2ccc3c(c2)c(=O)c(C(=O)NC2CCCC2)cn3C)CC1
→ i	-0.7%	i	0.5%	4.13e-08
CC(C)(C)C1CCC2(CC1)C(C#N)=C(SCC(=O)Nc1ccccc1)NC(=O)C2C#N (configuration not stated)
→ i	x	i	x	4.6e-09
O=C(C1CCN(Cc2ccc(OCc3ccccc3)cc2)CC1)N1CCCC1
→ x	18.3%	x	1.4%	x
COc1ccccc1NC(=O)Cn1cnc2c(cnn2-c2ccc(C)c(C)c2)c1=O
→ i	5.8%	i	1.0%	2.2e-09
CCSc1nc2ccccc2n1CC(=O)N1CCCCC1
→ i	6.5%	i	-0.2%	5.2e-09
O=CNCC(=O)NC1CCCCCC1
→ i	-0.8%	i	-2.0%	1e-09
CC1=C(Sc2ccccn2)C(=O)NC(C)(C)C1
→ i	x	i	1.0%	1.04e-08
CCn1c(SCCOc2ccc(OC)cc2)nnc1C(CO)NC(=O)c1ccc(OC)cc1 (configuration not stated)
→ i	-11.7%	i	3.0%	1.82e-08
O=C1c2ccccc2C(=O)N1CCCCn1c(=O)oc2ccccc21
→ i	u	i	-0.9%	7e-09
COC(=O)CCN(C1CCCCC1)S(=O)(=O)c1ccc(S(=O)(=O)N2CCCCC2)cc1
→ i	0.6%	i	0.0%	1.69e-08
COc1cccc(CC(C(=O)Nc2cc(C)ccc2C)c2nn[nH]n2)c1OC (configuration not stated)
→ i	5.1%	i	-0.2%	9.2e-09
CCCCC=O
→ x	u	x	2.6%	x
CCCCNC(=O)OC1CCS(=O)(=O)C1 (configuration not stated)
→ i	0.2%	i	-1.6%	1e-09
N#CC[n+]1cc(-c2ccc(Cl)cc2)n2c1CCC2
→ i	0.2%	i	1.0%	1e-09
CCc1ccc(C2CC(c3ccccc3C)n3nc(N)nc3N2)cc1 (configuration not stated)
→ x	14.4%	x	-0.8%	x
Cn1c(=O)c2cc(S(=O)(=O)NC(C(=O)N3CCCCCC3)c3ccccc3)ccc2n(C)c1=O (configuration not stated)
→ x	11.1%	x	-2.7%	x

One compound at a time, from the list above:
CCOC(=O)C(C)(C)[C@H](O)C(C)C in the list: Resorufin fluor = i; TSHR agonist = 6.8%[11.4 µM]; A488 autofl = i; AID923 = 3.4%[11.5 µM]; A647 fluor = 4.33e-08
Cc1ccc2c(c1)cc(CN(Cc1ccc3c(c1)OCO3)C(=O)c1cnccn1)c1nnnn12 in the list: Resorufin fluor = i; TSHR agonist = 19.8%; A488 autofl = i; AID923 = 0.0%; A647 fluor = 2.12e-08

Other entries follow.
Results follow in this order: Resorufin fluor	TSHR agonist	A488 autofl	AID923	A647 fluor
CNC(=O)[C@@]1(Cc2ccccc2)C=C[C@@H](C)N1C(=O)OC
→ x	14.4%	x	-2.0%	x
COc1cccc(N(CC(=O)Nc2cccc(N(C)S(C)(=O)=O)c2)S(C)(=O)=O)c1
→ i	-1.1%	i	-0.4%	1e-09
CCCN=C(N)NCCC[C@H](N)C(=O)O
→ x	-0.8%	x	0.0%	x
COc1ccc(OC)c(NC(=O)CCN2CCCCC2)c1
→ i	-14.0%	i	0.4%	3.7e-09
O=c1[nH]c2cc(Cl)ccc2c(O)c1-c1cccc(Oc2ccccc2)c1
→ x	10.9%	x	-2.8%	x
O=C1c2ccccc2S(=O)(=O)N1CC(O)COc1ccc(Cl)cc1 (configuration not stated)
→ i	x	i	x	2.5e-09
O=C(NCCCN1CCc2ccccc2C1)C1CCN(c2nnc(-n3cccc3)s2)CC1
→ x	0.5%	x	-1.4%	x
O=C(CSc1nnc(-c2ccccc2)n1Cc1ccccc1)N1CCCC1
→ i	4.1%	i	0.3%	2.6e-09
O=C(c1cc(-c2ccncc2)nc2ccc(Br)cc12)N1CCN(c2ccccn2)CC1
→ i	u	i	0.7%	7.1e-09
Cc1csc(NC(=O)CSc2nnc(-c3ccncc3)n2C)n1
→ i	-6.7%	i	-0.1%	1.97e-08
COC(=O)COc1ccc(S(=O)(=O)Nc2ccc(C(N)=O)cc2)cc1
→ i	-8.1%	i	-1.2%	9.2e-09
COc1ccccc1N1CCN(C(=O)c2ccc(S(=O)(=O)N3CCCCCC3)cc2)CC1
→ i	-1.5%	i	1.7%	1e-09
Cc1ccc(S(=O)(=O)Cn2nnnc2C(C(C)C)N2CCN(Cc3ccco3)CC2)cc1 (configuration not stated)
→ i	6.6%	i	-1.4%	1.6e-09
CCOc1ccccc1C1C(C#N)=C(N)Nc2onc(-c3ccccc3)c21 (configuration not stated)
→ i	22.0%	i	-0.3%	1.49e-08
Cc1occc1C(=O)NC(C)c1ccc2c(c1)OCO2 (configuration not stated)
→ i	2.7%	i	-1.2%	1e-09
COc1cc(NC(=O)CSc2nc3ccccc3c(=O)n2C)ccc1NC(=O)c1ccco1
→ i	14.5%	i	1.6%	3.9e-09
CCC(C)NC(=O)c1cc(-c2ccc(OC)cc2)on1 (configuration not stated)
→ i	-4.1%	i	0.1%	1.54e-08
COc1ccccc1CNc1ccnc(-c2ccccc2OC)n1
→ i	u	i	1.5%	4.9e-09
Cc1nc2cnc(N(C)C)nc2n(CCc2ccccc2)c1=O
→ i	u	i	17.3%	1.5e-09
CCOC(=O)C1C(=O)CC(C)(O)C(C(=O)OCC)C1c1cccc(OC)c1 (configuration not stated)
→ x	u	x	-1.1%	x
COc1ccccc1-n1cnnc1SCC(=O)Nc1ncc(Cl)cc1Cl
→ i	0.3%	i	0.5%	4e-09
Cc1cc(C)n(-c2nc3c(c(=O)[nH]c(=O)n3C)n2C)n1
→ i	x	i	-0.2%	1e-09
CCC1CCCCN1C(=O)CSc1nnc(-c2ccc(Cl)cc2)o1 (configuration not stated)
→ x	9.2%	x	0.0%	x
Cc1c2c(nc3c(C(=O)NC4CCCCC4C)cnn13)CCCC2 (configuration not stated)
→ i	u	i	0.6%	3.34e-08
COC(=O)[C@@]1(C)C[C@@H]1[C@@H](NC(=O)[C@@]1(C)C[C@@H]1[C@@H](NC(=O)[C@@]1(C)C[C@@H]1[C@@H](NC(=O)[C@@]1(C)C[C@@H]1[C@@H](NC(=O)OCc1ccccc1)c1ccccc1)c1ccccc1)c1ccccc1)c1ccccc1
→ x	-1.7%	x	-3.7%	x
CCOC(=O)c1cc2sccc2n1Cc1ccc(C#N)cc1
→ i	u	i	0.4%	2.88e-08
Clc1ccc(-c2nnc(SCc3ccon3)o2)c(Cl)c1
→ i	9.7%	i	-0.6%	1e-09
Cc1cnc(CNc2cc(-c3ccc4c(c3)OCO4)ncn2)cn1
→ i	15.6%	i	0.1%	9.4e-09
O=C(CSc1nc2c(c(=O)n1-c1ccc(Cl)cc1)SCC2)NCc1ccco1
→ i	u	i	-0.8%	9e-09
O=C1CSC(c2ccccc2)N1CC12CC3CC(CC(O)(C3)C1)C2 (configuration not stated)
→ i	4.6%	i	-0.7%	1e-09
Cc1[nH]c2ccc(-c3nnc(SCC(=O)c4ccc(F)cc4)o3)cc2c1C
→ i	-0.9%	i	0.0%	1.35e-08
CC(=O)c1cc(C#N)c(SCCC(C)C)nc1C
→ i	19.4%	i	-1.6%	8.4e-09
CC1=C(C(=O)N(C)C)C(c2ccc(Cl)c(Cl)c2)NC(=O)N1 (configuration not stated)
→ i	1.8%	i	4.5%	2.11e-08
CCOC(=O)Cc1nnc(NC(=O)C(CC)Sc2nc(C)cc(=O)[nH]2)s1 (configuration not stated)
→ x	-0.5%[11.4 µM]	x	-3.6%	x
Cn1c2c(c(=O)n(C)c1=O)C(NC(=O)c1cccs1)(C(F)(F)F)C(=O)N2 (configuration not stated)
→ i	x	i	x	1.55e-08
Cc1cc(NC(=O)c2cc(-c3cccc(Cl)c3)on2)no1
→ i	1.1%	i	-1.9%	1.4e-09
CCOC(=O)c1ccc(NC(=O)CSC2=NC(=O)C(CC)C(=O)N2)cc1 (configuration not stated)
→ i	-5.7%	i	0.1%	1.2e-09
Cc1cc2ccccc2n1CCNC(=O)COc1ccccc1
→ x	-8.9%	x	2.9%	x
Cc1noc(C)c1CSc1nnc(-c2ccncc2)n1-c1ccc(Cl)c(Cl)c1
→ i	x	i	3.1%	7.9e-09
CN(C(=O)c1ccc2c(c1)OCO2)C1(C(=O)NC2CCCC2)CCCCC1
→ i	u	i	0.2%	6.8e-09
O=C(O)c1ccc(C(=O)O)c(C(=O)Nc2ccc3c(c2)Cc2ccccc2-3)c1
→ i	3.3%[11.4 µM]	i	-1.9%[11.5 µM]	1.78e-08
Cc1nc2nc(C)c(CCC(=O)Nc3ccc4c(c3)OCO4)c(C)n2n1
→ i	4.2%	i	0.2%	1.97e-08
COc1ccccc1N(CC(=O)NC1CCCC1)C(=O)c1csnn1
→ i	u	i	0.6%	2.83e-08
CC1CCN(C(=O)CSc2nnc(Cn3c(=O)sc4ccccc43)n2C)CC1
→ x	-2.8%	x	-2.3%	x
COc1ccc(CNC2CCCCC2C)c(OC)c1 (configuration not stated)
→ i	u	i	-1.0%	3.3e-09
CC(=O)Nc1cc2c(cc1Br)OCCO2
→ i	x	i	x	8.12e-08
CCOc1ccc(OCC)c(C2C(C#N)=C(N)N(c3cccnc3)C3=C2C(=O)CC(C)(C)C3)c1 (configuration not stated)
→ i	3.8%	i	-2.2%	2.38e-08
CN(C)C(=O)N1CCC(C(=O)NCc2ccc(F)cc2)CC1
→ x	0.3%	x	-2.4%	x
CCC(=O)N1CCN(c2ccc(Cl)cc2NC(=O)c2ccc3c(c2)OCCO3)CC1
→ i	u	i	-2.0%	1.3e-08
OCCCNc1ncnc2[nH]ncc12
→ i	4.7%[11.4 µM]	i	1.0%[11.5 µM]	4.08e-08
Cc1c(Cl)cc(C(C)(C)C)c(O)c1Cc1c(C)c(Cl)cc(C(C)(C)C)c1O
→ i	11.2%[11.4 µM]	i	1.0%[11.5 µM]	1e-09
Cc1cc(C)nc(NC(=O)c2c(-c3c(Cl)cccc3Cl)noc2C)n1
→ i	-2.4%	i	-2.5%	5.2e-09
O=S(=O)(Cc1ccc(Cl)cc1)N1CCCC1
→ i	-0.5%	i	-0.4%	7.9e-09
